Sa growth inh – S. aureus growth inhibition at 42 and 30 °C, primary screen, LtaS inhibitor project, RN4220, two temperatures | relative growth, % (test concentration not listed) | OD600, 20 h, 42 °C; hits give low values | 170,000 compounds, 0.53% hits;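 active means growth at 42 °C up to 50% and 20 or more points under that at 30 °C, or under 10% at both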;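 further: 300 nL library stock went into each well; scaled to the means of positive and negative controls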
HCMV UL50-53 inh – inhibitors of HCMV UL50-UL53 interaction, biochemical, HTRF; 190,000 compounds, 0.15% hits; HCMV UL50-UL53 nuclear egress complex (human cytomegalovirus); inhibition, % (no concentration beside the values); normalized percent inhibition; AID 1918969, 2023;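 active means both replicates at 50% or more, plus weaker picks with an unusually low signal ratio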;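 further: stock transfer was 100 nL into about 20 µL; 0% = negative control wells and 100% = wells with untagged competitor protein; inactives centre near -12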
GIV-Gai inh – inhibitors of GIV peptide binding to Galpha-i3, primary screen, biochemical, fluorescence polarization, FITC-GIV GBA peptide, rat Galphai3 | 210,000 compounds, 0.42% hits | Guanine nucleotide-binding protein G(i) subunit alpha-3 (Rattus norvegicus), P08753 | AID 1224905, 2016 | 90 min; hits give low values; scaled: aluminum fluoride 0%, vehicle 100% | percent of control (FP), % (test concentration not listed);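 active means replicate mean at 85% of control or lower, very high polarization wells dropped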;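 further: wells of about 15 µL received 100 nL stock; the first replicate is given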
Target sequence (P08753 whole entry, looked up): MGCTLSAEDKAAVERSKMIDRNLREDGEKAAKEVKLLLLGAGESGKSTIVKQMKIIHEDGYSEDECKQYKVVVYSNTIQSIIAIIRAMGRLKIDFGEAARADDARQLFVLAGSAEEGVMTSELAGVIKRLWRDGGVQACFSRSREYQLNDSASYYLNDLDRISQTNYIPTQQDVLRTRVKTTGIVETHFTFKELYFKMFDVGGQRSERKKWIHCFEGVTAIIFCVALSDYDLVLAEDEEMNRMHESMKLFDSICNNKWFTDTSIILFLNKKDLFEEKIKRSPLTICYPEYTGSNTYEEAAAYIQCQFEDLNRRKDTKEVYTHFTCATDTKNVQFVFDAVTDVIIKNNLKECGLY
Sa growth inh second temp – recorded beside Sa growth inh, whose call it bears; relative growth, %; measured here: growth at 30 °C;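 optical density after 20 h as mean of two plates; 100% = untreated growth and lower means inhibition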
Active calls of the source: *; nt = no result given; & = joins results of further samples.

SMILES	Sa growth inh	Sa growth inh second temp	HCMV UL50-53 inh	GIV-Gai inh
O=C1CCCC2=C1C(c1ccco1)C1=C(N2)c2ccccc2C1=O (stereo not drawn)	104	81	-38	97
COC(=O)c1cc2sc(C)cc2n1CC(=O)Nc1cccc(SC)c1	137	96	-16	106
Cc1cc(C)n2nc(CNS(=O)(=O)c3ccc(C)c(C)c3)nc2n1	113	88	-4	106
CCCN1C(=O)C2(c3ccccc31)c1c(oc3cc(C)c(C)cc3c1=O)C(=O)N2CCO (stereo not drawn)	95	86	-36	102
COC(=O)NCCSc1nnnn1-c1ccccc1	44	20	15	102
Cc1nc2cc(CC(=O)O)ccc2s1	86	95	8	nt
O=C(Nc1cccnc1)c1cc(-c2ccc(F)cc2)no1	73	82	-26	100
CC12CC3(C)CC(C)(C1)CC(CCO)(C2)C3	100	94	-10	108
COc1ccc(S(=O)(=O)N2CCN(c3cc(N4CCCCC4)nc(C)n3)CC2)cc1C	nt	nt	-11	101
CNC(=O)c1ccccc1Sc1ccc(OC)cc1C(=O)NC	113	79	-4	106
CC(=O)Nc1cccc(Oc2nc(C)nc3sc4c(c23)CCC4)c1	94	89	3	101
Cc1noc(C)c1C(=O)Nc1ccc(-n2ccc(C(F)(F)F)n2)cc1	77	90	-18	96
CCc1ccc(NC(=O)CCc2nc3ccccc3[nH]2)cc1	73	88	nt	106
CC(c1nnc(SCC(=O)N(CC#N)c2ccccc2)n1-c1ccc(F)cc1)N1CCCCC1 (stereo not drawn)	103	86	-27	nt
O=C1c2oc3ccccc3c(=O)c2C(c2cccs2)N1c1nccs1 (stereo not drawn)	98	87	-27	98
O=C(Nn1cnnc1)c1cc(-c2ccccn2)nc2ccccc12	95	86	-32	nt
Cc1ccc(S(=O)(=O)Nc2cc(Cl)c3oc4c(c3c2)CCCC4)cc1	104	117	9	107
COCCNC(=O)CSc1nc(-c2ccc(C)cc2)nc2c1c(=O)n(C)c(=O)n2C	93	88	nt	97
CCN(c1ccccc1)S(=O)(=O)c1ccc2[nH]cc(C(=O)N3CCOCC3)c(=O)c2c1	99	92	nt	108
O=C(Cn1nc(-c2ccccc2)ccc1=O)NCc1ccc(F)cc1Cl	98	104	nt	109
COc1ccc(-n2c(=O)c3ccc(C(=O)NCc4ccc(C)cc4)cc3n(Cc3ccc(F)cc3Cl)c2=O)cc1	105	100	-28	103
CCOC(=O)c1cccc(NC(=O)c2cnc(N3CCCCC3)c3ccccc23)c1	105	89	nt	106
CC(C)(C)c1cc(C(=O)Nc2cccnc2)cc(C(=O)Nc2cccnc2)c1	91	89	-2	104
CC(C)C(NC(=O)C(c1ccccc1)c1ccccc1)C(=O)N1CCOCC1 (stereo not drawn)	92	84	-8	nt
CCn1c(=O)c(C(=O)CN(C)CC(=O)Nc2ccccc2Br)c(N)n(Cc2ccccc2)c1=O	97	98	6	nt
Nc1cc(-c2ccccc2)nn1CC1CCCCC1	89	90	-10	nt
Cc1nn(CC(=O)N2CCCCC2)c(=O)c2ccccc12	93	88	-19	98
Cc1c(-c2ccccc2)nc2sc3c(c2c1N)CCCC3	89	94	nt	101
CSc1nsc(SC)c1C(=O)NC(C)C	105	94	1	101
O=C(NCc1ccccc1)c1cccc(Nc2nc3ccccc3n3nnnc23)c1	129	100	nt	104
COC(=O)CNC(=O)c1cccnc1Oc1ccc(C)cc1	91	88	-17	102
CCc1ccc(NC(=O)C(CC)n2c(=O)c(-c3ccccc3NC(C)=O)nc3ccccc32)cc1 (stereo not drawn)	107	88	-6	104
COc1ccc(/C=C2/NC(=O)NC2=O)cc1	93	87	nt	97
CC(C)(C)N1CN=C(SCc2ccc(Cl)cc2)NC1	83	98	-17	97
Cc1ccc(-c2ccc(=O)n(C(C)C(=O)Nc3ccc(F)cc3)n2)cc1S(=O)(=O)N1CCCCC1 (stereo not drawn)	nt	nt	12	107
O=C(O)c1ccccc1NS(=O)(=O)c1cccc2nsnc12	115	98	-72	102
Cn1c(=O)cc(SCC(=O)N2CCCC2)c2ccccc21	80	86	nt	103
Cc1nc(N2CCN(c3ccccn3)CC2)c2c(C)c(C(=O)Nc3ccc4c(c3)OCO4)sc2n1	nt	nt	-9	103
Cn1nnc(N2C(=O)C(O)=C(C(=O)c3ccco3)C2c2ccccc2)n1 (stereo not drawn)	101	89	-41	nt
O=C(CCN1CCCCC1)Nc1ccc(Cl)cc1	108	90	0	nt

Record cards, from the list above:
Listed for Cn1c(=O)cc(SCC(=O)N2CCCC2)c2ccccc21 : Sa growth inh: 80; Sa growth inh second temp: 86; HCMV UL50-53 inh: nt; GIV-Gai inh: 103
Listed for Cc1nc(N2CCN(c3ccccn3)CC2)c2c(C)c(C(=O)Nc3ccc4c(c3)OCO4)sc2n1 : Sa growth inh: nt; Sa growth inh second temp: nt; HCMV UL50-53 inh: -9; GIV-Gai inh: 103

The listing picks up, starting two compounds before the break.
SMILES	Sa growth inh	Sa growth inh second temp	HCMV UL50-53 inh	GIV-Gai inh
Cn1nnc(N2C(=O)C(O)=C(C(=O)c3ccco3)C2c2ccccc2)n1 (stereo not drawn)	101	89	-41	nt
O=C(CCN1CCCCC1)Nc1ccc(Cl)cc1	108	90	0	nt
Cc1cc(C(=O)COC(=O)[C@@H]2CCCN2C(=O)c2cccs2)c(C)n1Cc1ccco1	86	90	-14	nt
CN(C(=O)C1CCC1C(=O)O)c1nc(-c2ccc(Cl)s2)cs1 (stereo not drawn)	148	97	-52	96
O=S(=O)(c1cccc(-c2nnc(SC(F)F)n2-c2ccccc2)c1)N1CCCCC1	117	76	-9	nt
COc1ccc(C2=Nc3ccccc3C2=O)cc1	144	83	-22	nt
COc1cccc(CNC(=O)CSc2cc(C)[nH]c(=O)n2)c1	125	85	nt	104
C=CCn1c(C)csc1=Nc1ccc(S(=O)(=O)Nc2nc(C)cc(C)n2)cc1	nt	nt	7	106
O=C(N=Nc1c(O)[nH]c(=O)[nH]c1=O)c1ccccn1	101	106	-19	105
COc1ccccc1OCCn1c(-c2ccc(Br)cc2)nc2ccccc2c1=O	107	94	-4	104
Brc1ccc(CNCCCSc2nnnn2-c2ccccc2)cc1	115	68	-5	109
CC(C)(C)C1CCc2onc(C(=O)Nc3ccccc3C(F)(F)F)c2C1 (stereo not drawn)	90	87	-31	99
CCCCNC(=O)CCc1c(C)[nH]n(-c2nc(C)c(C)s2)c1=O	nt	nt	-6	98
CC1CCCCN1C(=O)c1cc(-c2cccnc2)n(-c2ccccc2)n1 (stereo not drawn)	nt	nt	-20	107
CCOC(=O)c1ccc(NC(=O)c2sc(NC(=O)c3ccc(Cl)cc3)c(C(=O)OCC)c2C)cc1	nt	nt	-30	98
COc1ccc(NC(=O)CSc2nc3ccccc3o2)cc1	98	91	-12	103
CCOc1ccc(NC(=O)c2sc3ccccc3c2Cl)cc1	101	86	-25	106
Cc1ccc(C)c(OCCn2c(-c3ccc(Cl)cc3)nc3ccccc3c2=O)c1C	107	97	9	105
Cc1ccc(N2C(=O)CS(=O)(=O)C23C(=O)N(Cc2cccc(F)c2)c2ccccc23)cc1Cl (stereo not drawn)	98	98	-11	102
CCOC(=O)/C(C#N)=C(/N)c1cc2cccc(OC)c2oc1=O	106	82	-50	nt
CC(C)c1ccc(C(CNC(=O)c2cc(=O)c3ccc(Br)cc3o2)N2CCOCC2)cc1 (stereo not drawn)	nt	nt	-45	107
Cc1nnc(NC(=O)Cc2n[nH]c(=O)c3ccccc23)s1	96	90	-10	nt
O=C(CSc1ncnc2ccccc12)N1CCOCC1	110	84	-38	nt
O=C(CSc1nc2ccccc2n1Cc1ccc(F)c(Cl)c1)N1CCN(c2ccc(F)cc2)CC1	104	88	-22	94
COc1cc(N)c(C#N)cc1OC	121	89	nt	102
Cc1ccccc1NC(=O)CC1NCCNC1=O (stereo not drawn)	102	103	2	101
CC1=CC(c2ccccc2)=C(C#N)C(=S)C1CC(=O)c1cccs1 (stereo not drawn)	118	89	-16	nt
O=c1c2ccccc2n2c(=S)[nH]nc2n1-c1ccccc1	91	90	-7	nt
CC1CCN(C(=O)c2ccc(NC(=O)c3nsc4ccccc34)cc2)CC1	93	85	nt	102
CCCNC(=O)N1CCc2cc(OC)c(OC)cc2C1c1cc2cc3c(cc2[nH]c1=O)OCO3 (stereo not drawn)	105	94	1	106
N#Cc1ccc(C(CO)CO)nc1	88	105	-14	97
O=C(O)CCS(=O)(=O)Cc1cccc(Cl)c1	104	90	0	96
O=C(c1ccccc1C(=O)N1CCCCC1)N1CCCCC1	81	90	-7	nt
Cc1cc(Cl)nc(C)n1	121	79	-2	109
C=CCON1C(=O)C2C3C=CC(O3)C2C1=O (stereo not drawn)	107	86	0	nt
Nc1ncnc2n[nH]c(Nc3ccc(F)cc3)c12	nt	nt	-11&-2&-2&-15&-15&-24	103
S=c1[nH]ncn1-c1ccccc1	115&91	93&86	-4&-26	97
Cc1sc(NC(=O)C2=NNC(=O)CC2)nc1-c1ccc(F)cc1	103	85	-35	nt
COCc1cc(C)n(CC(=O)Nc2cc(Cl)ccc2OC)c(=O)c1C#N	88	84	nt	105
O=C(NCc1ccc(Cl)cc1)C1(NS(=O)(=O)c2cccc3cccnc23)CCCCC1	92	79	nt	97
CCCCC(=O)n1c(=O)oc2ccc(C)cc21	89	85	-17	105
COc1ccc(N2CCN(C(=O)c3cc4ccc5cccnc5c4[nH]3)CC2)cc1	90	94	nt	97
Cc1ccc2nc(NC(=O)CC3Oc4ccccc4NC3=O)sc2c1 (stereo not drawn)	106	89	7	101
CCN(CC)CCNC(=O)C1CCN(S(=O)(=O)c2c(C)noc2/C=C/c2ccccc2F)CC1	105	91	nt	105
COc1ccc(OCc2nnc(SCC(=O)N(C)c3ccccc3)n2Cc2ccco2)cc1	92	93	1	nt
CCOc1ccccc1NC(=O)c1cc2c(Cl)nc3ccccc3c2s1	119	87	-31	101
COc1ccccc1CNC(=O)c1ccc(CS(=O)(=O)c2c(Cl)cccc2Cl)o1	105	89	-28	104
COC(=O)CSc1nc2c(cnn2-c2ccccc2)c(=O)[nH]1	95	91	-24	99
Cc1cccc(Cn2c(CNS(=O)(=O)c3ccc4c(c3)CCCC4)nc3cccnc32)c1	81	84	nt	99
COC(=O)c1ccc(CNC(=O)CNc2cc(C(F)(F)F)ccc2N2CCOCC2)cc1	101	91	-30	nt
COc1ccc(Nc2nc(-c3ccc(C)cc3)nc3ccccc23)c(OC)c1	92	63	nt	104
CCN1C(=O)c2ccccc2S(=O)c2ccc(C(=O)NCc3ccc(OC)cc3)cc21 (stereo not drawn)	91	86	-22	98

(further entries)
SMILES	Sa growth inh	Sa growth inh second temp	HCMV UL50-53 inh	GIV-Gai inh
CC(=O)N1CCc2cc(S(=O)(=O)CCC(=O)NCc3ccccc3)ccc21	104	93	-5	98
COc1cc(-c2nc(C(N)=O)c3c(n2)n(-c2cccc(C)c2)c(=O)n3C)cc(OC)c1OC	89	93	nt	103
O=c1c2cc(-c3ccccc3)sc2ncn1/N=C/c1cccs1	121	91	-7	104
Nc1nc2c(c(C(F)(F)F)n1)CCc1ccccc1-2	93	86	-10	99
Cc1ccc2onc(CNC(=O)N(C)C3CCCCC3)c2c1	90	83	nt	108
CC1CCC2(CC1)c1cnn(C(C)C)c1N=C(c1ccc(F)cc1)N2C (stereo not drawn)	77	77	-30	nt
Cc1ccc(C(=O)C2CC2)cc1	85	93	-17	nt
Cc1ccc(-c2nc3n(CC(=O)NC4CC4)c4c(c(=O)n3n2)CCC4)cc1	nt	nt	-5	105
COc1ccccc1CNC(=O)CCCCn1c(=O)c2ccccc2n(Cc2ccccc2F)c1=O	103	96	10	99
Cc1cccc(-c2nc3n(n2)C(=O)CC(c2ccc(F)cc2)S3)c1 (stereo not drawn)	60	90	nt	108

An excerpt of these results, with bars between the fields:
Compound | Sa growth inh | Sa growth inh second temp | HCMV UL50-53 inh | GIV-Gai inh
CC1CCN(C(=O)c2ccc(NC(=O)c3nsc4ccccc34)cc2)CC1 | 93 | 85 | nt | 102
CCCNC(=O)N1CCc2cc(OC)c(OC)cc2C1c1cc2cc3c(cc2[nH]c1=O)OCO3 (stereo not drawn) | 105 | 94 | 1 | 106
N#Cc1ccc(C(CO)CO)nc1 | 88 | 105 | -14 | 97
O=C(O)CCS(=O)(=O)Cc1cccc(Cl)c1 | 104 | 90 | 0 | 96
O=C(c1ccccc1C(=O)N1CCCCC1)N1CCCCC1 | 81 | 90 | -7 | nt

The list continues.
SMILES	Sa growth inh	Sa growth inh second temp	HCMV UL50-53 inh	GIV-Gai inh
C=CCN(CC=C)C(=O)CSc1nnc2c3ccccc3n(C)c2n1	83	91	-84	96
Brc1ccccc1NC1=NCCC1	94	99	-6	nt
Brc1cc(I)ccn1	94	97	-8	104
CCc1nnc(NS(=O)(=O)c2ccc(NC(=O)c3cc4ccccc4oc3=O)cc2)s1	nt	nt	-43	103
CC1(C)C2CC=C(C3N=C(N)Nc4nc5ccccc5n43)C1C2 (stereo not drawn)	84	85	-20	nt
O=S(=O)(c1ccccc1)N1CCn2c(nc3ccccc32)C1	96	85	7	107

Compound activity from PubChem BioAssay.
